Screening data: PubChem BioAssay, National Center for Advancing Translational Sciences (NCATS)
VACV mCherry inh – vaccinia inhibition (mCherry reporter); Vaccinia virus mCherry reporter infection, fluorescence; about a quarter of the inactives have no number; Potency, µM (doses to about 36.5 µM), without a hit: at the top dose activity change, negative = inhibition, most hits filed as inhibitors; 310,000 compounds, 0.63% hits; AID 720579; active = well fitted inhibition curve with a large enough effect; inconclusive = small, poorly fitted or top-dose-only effect; inactive = no such curve, though single readings can be large or run the other way; tested in A549 cells; note: nearly all actives have a fitted effect of over 35% in size; inactives centre near -10
Vaccinia Venus – inhibitors of vaccinia virus (Venus reporter); Potency, µM (titrated, usually from 36.5 µM), for inactives: at the top dose activity change, negative = inhibition, hits mostly inhibitors; AID 720580; Vaccinia virus Venus reporter expression, fluorescence; 330,000 compounds, 0.46% hits; active means well fitted inhibition curve with a large enough effect; inconclusive means small, poorly fitted or top-dose-only effect; inactive means no such curve, though single readings can be large or run the other way; tested in A549 cells; note: nearly all actives have a fitted effect of over 30% in size; inactives centre near -10
Starred values were filed as active, the others as inactive; i = inactive; ? = inconclusive; nt = no result given; & = joins results of further samples; [ ] = dose if it differs, or a comment. % is set by controls: 0 for no effect and ±100 for the full control effect; potency is the fitted concentration of half-maximal effect.

SMILES | VACV mCherry inh | Vaccinia Venus
CN(CC(=O)Nc1nc2ccccc2s1)S(=O)(=O)c1ccccc1 | nt | -15%
Cc1ccc(NC(=O)CSc2nc(=O)n(Cc3ccncc3)c3c2CCC3)c(C)c1 | -15% | -10%
COc1ccc(Cl)cc1NC(=O)CSc1cn(CC(=O)N2CCCC2)c2ccccc12 | -7% | -19%
COCc1cc(C)n(CC(=O)Nc2cccc(C)c2)c(=O)c1C#N | -9% | -2%
O=C(OCC(=O)N1CCN(c2ccccc2)CC1)c1nc(Cl)ccc1Cl | i | -19%
CCOC(=O)C1(C)Oc2ccccc2C(C(=O)OC)=C1C(=O)OC (configuration not stated) | -10% | -4%
COc1ccc(C2=CC3=C(Br)C(=O)C(C)(OC(=O)c4ccc(Cl)nc4)C(=O)C3=CO2)cc1 (configuration not stated) | ? | ?
Cc1cccc(Cl)c1OCCN1CCCC1 | -3% | 0%
Cc1ccc(S(=O)(=O)N2CCCCC2)cc1NC(=O)C1CC(=O)N(Cc2ccccc2)C1 (configuration not stated) | -5% | -26%
CN(C(=O)CSc1nc2ccc(NC(=O)c3ccc(F)cc3)cc2s1)c1ccccc1 | -13% | -28%
COC(=O)c1ccc(COC(=O)c2cnccn2)cc1 | i | -2%
Cn1nc(C(C)(C)C)c([N+](=O)[O-])c1C(=O)NCCO | -10% | -9%
CCOC(=O)/C(C#N)=C\C=C1C=CN(C)C=C1 | nt | -16%
CC(C)(C)c1ccc(OCC(=O)N2CCCCCC2)c(Br)c1 | -14% | -15%
COc1ccccc1NC(=O)c1ccc2c(c1)N(CC#N)C(=O)C(C)(C)O2 | -4% | -12%
Cc1occc1C(=O)NCc1cccs1 | nt | -3%
COc1cc(/C=C(\C#N)c2nc3ccc(C)cc3[nH]2)cc([N+](=O)[O-])c1O | ? | -19%
Cc1[nH]n(-c2ccccc2)c(=O)c1/C=N/O | -1% | -9%
CS(=O)(=O)N1c2ccccc2[C@]2(Br)C[C@H]3C(=O)N[C@@H](Cc4ccccc4)C(=O)N3[C@H]12 | i | -10%
CC1CCN(c2ccc3c(c2)S(=O)(=O)c2ccccc2C3=O)CC1 | i | -7%
Cc1oc(-c2ccccc2)cc1C(=O)Nc1ccc(N(C)C)cc1 | nt | -6%
Cc1sc(-c2cc3ccccc3oc2=O)nc1-c1ccc(Cl)cc1 | 0% | 11%
Cc1nn(-c2ccccc2)c(C)c1/C=N/O | nt | ?
Cc1cccc(CCNC(=O)CCS(=O)(=O)c2cc3c(cc2Cl)NC(=O)CO3)c1 | -10%[7.34 µM] | -18%[7.34 µM]
CN(C)c1ccc(-c2nnc(-c3cccs3)o2)cc1 | ? | ?
SMILES | VACV mCherry inh | Vaccinia Venus
c1ccc(-c2ccc(C3=Nn4c(Cn5nnc6ccccc65)nnc4SC3)cc2)cc1 | nt | -23%
Cc1nnc(SCC(=O)n2c3c(c4ccccc42)CCCC3)s1 | -16% | -11%
COc1ccc2c(c1)CCc1c(C(=O)N3CCc4ccccc4C3)noc1-2 | -3% | -13%
COc1ccc(NC(=O)CSc2ccccn2)cc1 | i | -2%
CN(CC(=O)Nc1ccc(N2CCOCC2)cc1)CC(=O)Nc1ccc([N+](=O)[O-])cc1Br | 0% | -21%
O=C(NC1CCCC1)c1cnn2c1NC(=C1CC1)C=C2C(F)F | -22% | -30%
CCC(O)(CC)C(=O)N/N=C/c1cc(Br)cc(Br)c1O | ? | -20%
CCOc1ccc(-c2nnn(CC(=O)Nc3ccccc3OC)n2)cc1OCC | -16% | -9%
CCCNC(=O)c1cc(-c2ccc(Br)cc2)on1 | -7% | -3%
COc1ccc(NC(=O)c2sccc2C)c([N+](=O)[O-])c1 | -13% | -9%
COC(=O)c1ccc(NC(=S)NC2CCCCC2C)cc1 (configuration not stated) | -22% | ?
C=C(C)C1CC=C(C)/C(=N/NC(=O)CNc2ccc(OCC)cc2)C1 (configuration not stated) | -15% | -2%
Cc1ccc(C(=O)N/N=C/c2c[nH]c3ccccc23)o1 | -29% | 2%
Cc1ccccc1S(=O)(=O)Nc1nc2ccccc2nc1N1CCOCC1 | nt | -5%
CCC1(c2ccc(F)cc2)NC(=O)N(CC(=O)N2CCN(C(=O)c3ccco3)CC2)C1=O (configuration not stated) | -19% | -12%
O=C(OCc1nc2scc(-c3ccccc3)c2c(=O)[nH]1)c1cc([N+](=O)[O-])ccc1Cl | -15% | -8%
CCOC(=O)c1cnc(SC)nc1N1CCCC1 | -20% | -22%
CC1(C(=O)Nc2ccccc2)Cc2c(-c3cccc(C(N)=O)c3)ccnc2O1 (configuration not stated) | -5% | -23%
Cc1cc(C)c2nc(NNC(=O)c3ccc(S(=O)(=O)N4CCc5ccccc5C4)cc3)sc2c1 | 16µM* | ?
O=C(NC(C(=O)N/N=C/c1cccc2ccccc12)c1n[nH]c(=O)c2ccccc12)c1ccccc1 (configuration not stated) | nt | ?
COc1ccccc1N1CCN(C(=O)Nc2ccc([N+](=O)[O-])cc2)CC1 | -21% | -11%
COc1cccc(N2C(C(C)=O)=NN(c3ccccc3)C2c2ccc(N3CCOCC3)cc2)c1 (configuration not stated) | -13% | -10%
COc1cc(/C=N/NC(=O)c2ccncc2)ccc1Oc1ccc([N+](=O)[O-])cn1 | -4% | 4%
CC(C(=O)Nc1ccc2c(c1)OCCO2)N1CCN(C(=O)c2ccco2)CC1 (configuration not stated) | nt | -23%
CN(C)c1ccc([N+](=O)[O-])cc1C(=O)O | i | -1%
SMILES | VACV mCherry inh | Vaccinia Venus
O=C(c1cc(-c2cccc(O)c2)on1)N1CCCC1 | i | 1%
COc1ccc2c(CCNC(=O)c3ccco3)c[nH]c2c1 | -19% | -13%
CCC(CC)C(=O)Nc1nnc(S(=O)(=O)N2CCCC2)s1 | i | -4%
COC(=O)N1CCCCC1c1cc(C(=O)NCc2ccc(Cl)c(Cl)c2)no1 (configuration not stated) | 11% | -11%
Cc1ccc(F)cc1CNC(=O)C1CCC(=O)N(C2CC2)C1 (configuration not stated) | i | -10%
CC(=O)N(C)c1ccc(NC(=O)C(F)(F)F)cc1 | -5% | -6%
Clc1ccc(COc2ccccn2)cc1Cl | nt | -21%
CN1OC[C@@H]2CN(C(=O)CCc3ccccc3)[C@H](c3cccc(-c4ccccc4)c3)C[C@@H]21 | i | -19%
Cn1c(=O)c(=O)n(C)c2cc(S(=O)(=O)CCC(=O)Nc3cccc(C(F)(F)F)c3)ccc21 | ? | -23%
COc1ccc(-c2cc(NC=O)c3ncc(-c4cccc(C(C)=O)c4)n3c2)cc1 | 13µM* | ?
O=C(Oc1ccccc1)N1CCN(c2ccc(F)cc2)CC1 | nt | -28%
CCOC(=O)N1CCN(C(=O)c2c(-c3c(Cl)cccc3Cl)noc2C)CC1 | 12% | 4%
CC(=O)c1ccc(-c2cccs2)s1 | -4% | 12%
CC(CCC(=O)O)C1CCC2C3CCC4C[C@H](O)CCC4(C)C3CC(=O)C12C (some centres not stated) | i | -3%
O=C(O)c1sccc1Oc1ccc(NS(=O)(=O)c2ccccc2)cc1 | -2% | -11%
Cc1ccccc1-c1nnc(SCCOc2ccc3c(C)cc(=O)oc3c2)o1 | nt | -2%
Cc1cc(C)nc(-n2nc(C)cc2Nc2ccccc2)n1 | nt | ?
O=C(Nc1cccc(Cl)c1Cl)c1cc(S(=O)(=O)NCCc2ccccc2)ccc1F | 7%&-13% | 8%&-12%
C[C@@]12CCC(Cl)C[C@H]1CCC1C2CC[C@]2(C)C(=O)CCC12 (some centres not stated) | 0% | -1%
CCCCCC(=O)N1C[C@@H](O)[C@H](n2cc(COC(=O)c3ccccc3)nn2)C[C@@H]1c1ccc(C)cc1 | -12% | 1%
CCCOC(=O)c1ccc(NC(=O)C2CCCO2)cc1 (configuration not stated) | 3% | -4%
O=C(COC(=O)Cn1cnc2ccccc21)Nc1cccc(S(=O)(=O)N2CCOCC2)c1 | i | -2%
S=C(NCCCc1ccccc1)Nc1ccccc1Cl | -17% | 0%
O=C1CC(=O)N2N=C(c3ccc([N+](=O)[O-])cc3)SC2=N1 | -9% | -9%
COc1ccc(OC)c(NC(=O)COc2ccc(S(=O)(=O)NC(C)C)cc2)c1 | -1% | -19%
SMILES | VACV mCherry inh | Vaccinia Venus
Cc1cc(N(C)C)ccc1[N+](=O)[O-] | -8% | -3%
COc1ccc(NC(=O)C2CCN(S(=O)(=O)c3ccc4c(c3)NC(=O)C(C)S4)CC2)cc1 (configuration not stated) | i | -21%
COCCNC(=O)C(c1cccc(OC)c1)N(Cc1cccs1)C(=O)Cn1nnc2ccccc21 (configuration not stated) | -18% | -6%
COc1ccc(C(=O)Nc2ccc(S(=O)(=O)Nc3onc(C)c3C)cc2)c(OC)c1 | 8% | 1%
Cc1ccccc1COc1ccc2oc(C)c(C(=O)O)c2c1 | -1% | 2%
CNC(=O)COc1cccc(C(=O)NCc2ccccc2)c1 | i | -6%
CC/C(=N\O)C(C)(C)/[N+]([O-])=C/c1ccc(Br)cc1 | -10% | -7%
CCOC(=O)Cn1nc(C)c([N+](=O)[O-])c1C | -12% | -9%
OCC[C@@H]1C[C@H](O)[C@@H](O)[C@]2(Cc3ccccc3CO2)O1 | -13% | 2%
CCCc1cc(=O)[nH]c(Nc2cc(C)ccc2OC)n1 | -19% | -12%
O=C(Nc1ccccc1N1CCOCC1)c1cc(Br)c(Br)s1 | -11% | 3%
COc1cccc2c(=O)c3c(oc12)CCCC3 | -12% | -9%
COc1ccccc1Nc1nn2c(=O)c3ccc(C(=O)NCCCOC(C)C)cc3nc2s1 | ? | ?
CNC(=O)[C@@H]1CCC(=O)N1 | i | -8%
Cn1nnnc1SCC(=O)NCc1cc([N+](=O)[O-])ccc1O | -6% | -1%
Cc1c(Cl)cnc(NC(=O)COC(=O)c2ccc(S(=O)(=O)NCc3ccco3)cc2)c1Cl | -16% | -6%
COCCNC(=O)C1(C)CCCN(Cc2ccc(-n3ccnc3)cc2)C1 (configuration not stated) | 12% | 2%
